Compound activity (PubChem BioAssay)
MARV entry inh – inhibitors of Marburg virus binding or cell entry; Potency, µM (top dose mostly 37.8 µM), without a hit: at the top dose activity change, negative = inhibition, hits mostly inhibitors; Marburg virus pseudotyped entry inhibition, cell reporter; control for the full effect not named in the record; about a third of the inactives were read at about 46 µM; 1.8% of 300,000 active; active = well fitted inhibition curve with a large enough effect; inconclusive = small, poorly fitted or top-dose-only effect, or effect the other way; inactive = flat fitted curve, though single readings scatter; tested in HEK293 cells; about a fifth of its hits are not listed in these tables; note: % is set by controls: 0 for no effect and ±100 for the full control effect; luciferase read-out
SARS PLP yeast – blocks SARS-CoV papain-like protease in a yeast assay; S. cerevisiae expressing SARS-CoV PLpro, growth rescue; control for the full effect not named in the record; Potency, µM (top dose mostly 32.9 µM), without a hit: top-dose activity, positive = growth rescue; 0.19% of 330,000 active; AID 485353; active means well fitted rising curve with a large enough effect; inconclusive means small, poorly fitted or top-dose-only effect; inactive means no such curve, though single readings can be large or run the other way; note: 0% is about no effect; nearly all actives have a fitted effect of over 55% in size; growth read by luminescence after 48 h
NS1 function inh – influenza NS1 inhibition; AID 2326; Potency, µM (titrated, usually from 46.1 µM), for inactives: top-dose activity, positive = more growth; 0.4% of 270,000 active; S. cerevisiae slowed by influenza A NS1, growth recovery by OD600; active means well fitted rising curve with a large enough effect; inconclusive means small, poorly fitted or top-dose-only effect; inactive means no such curve, though single readings can be large or run the other way; note: nearly all actives have a fitted effect of over 50% in size
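A cell-based growth assay was used: compounds that relieve NS1-induced slow growth of budding yeast raise OD600. Assay medium was yeast nitrogen base with ammonium sulphate and -URA supplement, pH 6.0, with 2% galactose.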
Lassa entry inh – inhibitors of Lassa virus binding or cell entry. Lassa virus pseudotype entry inhibition, cell reporter; control for the full effect not named in the record. Potency, µM (top dose mostly 37.9 µM), for the others: at the top dose activity change, negative = inhibition, actives largely listed as inhibitors. 1.2% of 300,000 active; active means well fitted inhibition curve with a large enough effect; inconclusive means small, poorly fitted or top-dose-only effect, or effect the other way; inactive means flat fitted curve, though single readings scatter; tested in HEK293 cells; note: % is set by controls: 0 for no effect and ±100 for the full control effect; nearly all actives have a fitted effect of over 50% in size; luciferase read-out
Cruzain noTriton – blocks cruzain activity in detergent-free assay; Potency, µM, without a hit: max response, negative = inhibition, usual class: inhibitors; 2.3% of 200,000 active; P25779; purified cruzain, Z-FR-AMC fluorescence, no detergent;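 note: plate controls were enzyme without inhibitor for no effect and buffer without enzyme for full effect; nearly all actives have a fitted effect of over 40% in size; top concentration of the series not given in the record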
Target sequence (P25779 123-467 limits assumed): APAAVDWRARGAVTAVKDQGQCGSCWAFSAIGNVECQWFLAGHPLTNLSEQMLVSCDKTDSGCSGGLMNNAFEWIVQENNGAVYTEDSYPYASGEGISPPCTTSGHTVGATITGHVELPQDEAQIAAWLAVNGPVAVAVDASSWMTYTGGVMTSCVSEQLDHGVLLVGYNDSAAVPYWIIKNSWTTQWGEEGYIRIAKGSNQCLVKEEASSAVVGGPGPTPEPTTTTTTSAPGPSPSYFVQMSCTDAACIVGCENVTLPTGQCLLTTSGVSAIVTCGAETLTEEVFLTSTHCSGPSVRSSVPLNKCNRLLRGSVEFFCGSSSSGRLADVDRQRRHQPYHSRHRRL
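Detergent-free condition (0.00005% Triton X-100) in acetate buffer pH 5.5 with DTT. 1.5 nM enzyme and compound were pre-mixed 15 min, then 2 uM Z-FR-AMC substrate added; reaction progress from fluorescence change between first and third reads (60 s).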
Cruzain inh Det – cruzain (T. cruzi) inhibition with detergent; P25779; purified cruzain, Z-FR-AMC fluorescence, 0.01% Triton; Potency, µM, for the others: max response, negative = inhibition, actives largely listed as inhibitors; 0.43% of 200,000 active;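 note: plate controls were neutral wells for no effect and buffer without enzyme for full effect; nearly all actives have a fitted effect of over 40% in size; top concentration of the series not given in the record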
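Read-out: AMC fluorescence (360 nm excitation, 450 nm emission), four reads over 2 min, first-to-third difference used. Conditions: cruzain 1.5 nM, Z-FR-AMC 2 uM, pH 5.5 acetate, 5 mM DTT, 0.01% Triton X-100.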
RE007 growth inh – less growth of the S. pombe RE007 Vpr strain | 0.21% of 360,000 active | Potency, µM (highest dose often 92.2 µM), inactives show at the highest dose activity change, negative = less growth | AID 651644 | S. pombe RE007 Vpr strain, BacTiter-Glo ATP luminescence, 24 h; control for the full effect not named in the record; active = well fitted falling curve with a large enough effect; inconclusive = small, poorly fitted or top-dose-only effect; inactive = no such curve, though single readings can be large or run the other way;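 note: % is set by controls: 0 for no effect and ±100 for the full control effect; nearly all actives have a fitted effect of over 50% in size; the assay follows cell death caused by Vpr and the record does not say whether a fall means rescue or toxicity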
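Fission yeast RE007 carrying one integrated HIV-1 vpr copy, seeded at OD 0.01 in PMG+AL medium with 23 nL pinned compound. Grown 24 h at 30 degrees; viability read by BacTiter-Glo luminescence after 5 min.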
2A StopGo – FMDV 2A StopGo reporter, luciferase signal. human cells with a luciferase reporter of 2A StopGo recoding; control for the full effect not named in the record. Potency, µM (highest dose often 57.9 µM), inactives show at the top dose signal change, negative = less light. 1.2% of 410,000 active; active = well fitted falling curve with a large enough effect; inconclusive = small, poorly fitted or top-dose-only effect; inactive = no such curve, though single readings can be large or run the other way; tested in HEK293T cells; note: % is set by controls: 0 for no effect and ±100 for the full control effect; nearly all actives have a fitted effect of over 45% in size; luciferase light after 4 h
Starred values were filed as active, the others as inactive; ? = inconclusive; / = no result given; & = joins results of further samples; [ ] = remark or other dose. Unless noted, calls come from the whole dose curve; as a rule, active = well fitted curve in the direction sought with a large enough effect; inconclusive = small, poorly fitted or top-dose-only effect, or another doubt; inactive = no such curve, though single readings can be large; an effect the other way counts as inactive or inconclusive. Potency is the fitted concentration of half-maximal effect.

#	SMILES	MARV entry inh	SARS PLP yeast	NS1 function inh	Lassa entry inh	Cruzain noTriton	Cruzain inh Det	RE007 growth inh	2A StopGo
1	COc1cc(OC)cc(OCC(O)Cn2ccnc2C)c1 (stereo not given)	6%	0%	-1%	3%	-8%	4.3%	11%	1%
2	Cc1cc(OC(=O)c2cccc(F)c2)c([N+](=O)[O-])c(=O)[nH]1	/	-1%	-12%	/	/	/	-7%	-15%
3	COc1cc(C(=O)N(CCN(C)C)CC2CCCN(Cc3ccccc3F)C2)ccc1C (stereo not given)	/	4%	15%	/	/	/	-17%	-5%
4	NNC(=O)c1ccc(O)cc1	?	13%	0%	6%	-5%	3.7%	0%	-5%
5	FC(F)(F)c1cccc(Cc2noc(CN(Cc3ccccn3)CC3CCCO3)n2)c1 (stereo not given)	/	6%	2%	/	/	/	-8%	?
6	COCc1nnc(NC(=O)C2CCN(C(=O)c3ccco3)CC2)s1	0%[46.1 µM]	-3%	-6%	/	/	/	1%	5%
7	COc1ccc(-n2c(C)cc(/C=C3\C(=N)N4N=C(CC(=O)N5CCOCC5)SC4=NC3=O)c2C)c(OC)c1	/	6%	?	/	/	/	2%	-19%
8	CCOc1ccc(N=C2NC(=O)CS2)cc1	/	-6%	-1%	/	/	/	12%	-14%
9	CC(=O)N1CCCC(C(=O)c2ccc(Oc3ccccc3)cc2)C1 (stereo not given)	?	-5%	-37%	1%[46.1 µM]	/	/	7%	-10%
10	COc1ccc(Cl)cc1NS(=O)(=O)c1cccc(C(=O)NCC2(N(C)C)CCCCC2)c1	?	-4%	-10%	-28%	/	/	-5%	2%
11	O=C1CN(C(=O)/C=C/c2cc(Br)ccc2F)CCN1	4%[46.1 µM]	-24%	-4%	10%	/	/	1%	13%
12	CCN(CC)c1ccc(NC(=O)CN(C)Cc2cccs2)cc1	-9%[46.1 µM]	0%	-11%	-10%	/	/	-12%	-19%
13	c1ccc(Cn2ncc3c(N4CCOCC4)ncnc32)cc1	-14%	-4%	-5%	10%	-8%	1.0%	8%	0%
14	Cc1ccc(S(=O)(=O)Nc2ccc(NC(=O)c3cccnc3)cc2)cc1	-6%[14.2 µM]	1%	-1%	?	/	/	4%	6%
15	Oc1ccc(/C=N/N2CCN(Cc3ccccc3)CC2)cc1	/	-1%	7%	/	/	/	7%	12%
16	C/C=C/C(=O)OCC(=O)Nc1ccc(OC)c(OC)c1	-3%[46.1 µM]	-2%	/	20%	/	/	-15%	21%
17	CCc1ccc(NC(=O)CSc2nnnn2C)cc1	/	-2%	-5%	/	/	/	12%	39%[activator]
18	CC(C)OCCCNC(=O)c1cc2c(-c3ccc(Cl)cc3)nn(C)c2s1	-15%[46.1 µM]	/	/	10%[46.1 µM]	?	-5.4%	/	-27%
19	CS(=O)(=O)c1ccc2nc(NC(=O)c3ccc(Cn4cc(Br)cn4)o3)sc2c1	4%	-7%	5%	8%	/	/	-7%	-3%
20	CN(/N=C/c1cccs1)c1cc(=O)n(C)c(=O)[nH]1	-12%	-16%	7%	-1%	-7%	-15%	-20%	6%
21	O=[N+]([O-])c1cccnc1Sc1n[nH]c(-c2ccc(Cl)cc2)n1	/	0%	-1%	/	/	/	9%	29%
22	COc1ccc(-n2c(CN3CCN(C)CC3)nc3ccc([N+](=O)[O-])cc3c2=O)c(OC)c1	/	1%	3%	/	/	/	2%	-13%
23	CCOc1ccc(-n2c(=S)sc3c(=O)[nH]c(SCC(=O)NCc4ccco4)nc32)cc1	-6%&-2%	-17%	?	-3%	6%	-17%	0%	-3%
24	Cc1cccc(N2CCN(C(=O)c3cc4c(=O)n(C)c5ccccc5c4s3)CC2C)c1 (stereo not given)	0%[46.1 µM]	/	/	-15%[46.1 µM]	-4%	-1.3%	/	-21%
25	O=C(NCc1ccccn1)/C(=C/c1ccco1)NC(=O)c1ccccc1	19%	-24%	1%	0%	-8%	-4.0%	-3%	2%

Next part.
#	SMILES	MARV entry inh	SARS PLP yeast	NS1 function inh	Lassa entry inh	Cruzain noTriton	Cruzain inh Det	RE007 growth inh	2A StopGo
26	O=C(COC(=O)/C=C/c1ccc(Cl)cc1Cl)Nc1cc(C(F)(F)F)ccc1N1CCOCC1	1%	3%	4%	4%	13µM*	-2.7%	0%	-9%
27	O=C(Cc1cccc(C(F)(F)F)c1)Nc1ccccc1	-19%[46.1 µM]	-1%	-8%	0%	/	/	14%	96%[activator]
28	CCC(C)NC(=O)CN1C(=O)NC2NC(=O)NC21 (stereo not given)	/	-7%	-13%	/	/	/	2%	-7%
29	CN1CCN(c2ccc(F)cc2N)CC1	24%[46.1 µM]	1%	/	9%	/	/	0%	7%
30	CC1(C)CC(=O)C(C=NCC(O)c2ccccc2)=C(O)C1 (stereo not given)	?	3%	-1%[9.22 µM]	-1%	-2%	-1.4%	-16%	-10%
31	O=C(CSc1nnnn1-c1cccc2ccccc12)Nc1ccc(C(=O)O)cc1	/	8%	5%	/	/	/	6%	3%
32	c1ccc(OCCOCCN2CCOCC2)cc1	25%	3%	0%	11%	-24%	2.0%	-15%	/
33	CCCC(O)(c1ccccc1)C(CN1CCOCC1)c1ccccc1 (stereo not given)	/	1%	-4%	/	/	/	-1%	-22%
34	CCn1ccc2cc(S(=O)(=O)N3CCCN(C(=O)NCC(=O)OC)CC3)ccc21	/	/	/	4%[46.1 µM]	-10%	-0.8%	/	-1%
35	CCOC(=O)C(=O)N1CCN(c2cc3c(cc2[N+](=O)[O-])n(C)c(=O)n3C)CC1	1%	1%	-1%	5%	/	/	8%	-17%
36	COc1cc(-c2nnc(CSc3nnc(Nc4ccc(Oc5ccccc5)cc4)s3)o2)cc(OC)c1OC	?	16%	26%	?	13%	-5.1%	-12%	-11%
37	Cc1c(N=Cc2cccs2)c(=O)n(-c2ccccc2)n1C	-2%	2%	14µM*	-2%	-9%	4.3%	5%	9%
38	COc1cccc(C(=O)Nc2cc(=O)n(C)c(=O)n2C)c1OC	/	-1%	4%	/	1%	-3.7%	-3%	-20%
39	CC(=O)Nc1cccc(NC(=O)CSc2nc(C3CC3)nc3ccccc23)c1	?	1%	9%	-3%	/	/	6%	?
40	N=C(N)Cc1ccccc1Sc1ccccc1	?	0%	15%	6%	-9%	0.7%	10%	-23%
41	CCOC(=O)c1ccccc1NC(=O)c1ccc(Cl)c(S(=O)(=O)N2CCOCC2)c1	25%	/	-2%	-29%	/	/	8%	0%
42	Cc1cc(CN2CCN(c3ccc(F)cc3)CC2)cs1	/	/	/	4%[46.1 µM]	-4%	-1.4%	/	-3%
43	CN(Cc1cccc(Cl)c1Cl)CC(O)COc1ccccc1 (stereo not given)	/	-1%	-5%	/	/	/	-16%	-5%
44	CC(C)(C)OC(=O)N1CCCC(C(=O)Nc2ccc(C(=O)N3CCCC3)cc2)C1 (stereo not given)	?	3%	/	/	/	/	1%	-11%
45	Cc1cc(C)c(OCCn2ccnc2)c(C)c1	/	-10%	-8%	/	/	/	8%	-25%
46	Cc1nc2ccccc2c2nc(NC(=O)Cc3ccccc3)nn12	8%	-6%	-5%[9.22 µM]	-3%	-9%	-6.0%	4%	-5%
47	c1ccc2c(CSCc3nc4ccccc4[nH]3)cccc2c1	-19%	-13%	-48%	6%	5%	-6.7%	-5%	?
48	O=C(Nc1ccc(F)cc1)c1csc2c1CCCCC2	?	/	/	/	-1%	-5.6%	/	-18%
49	CCCCOc1ccccc1C1CC(=O)Nc2ccc3ccccc3c21 (stereo not given)	?	/	/	-23%[46.1 µM]	-27%	-11%	/	-21%
50	CC(=O)c1cccc(NC(=O)C2CCCN2S(=O)(=O)c2cccc3cccnc23)c1 (stereo not given)	0%	-3%	3%	/	-9%	-0.2%	1%	-10%

(list continues)
#	SMILES	MARV entry inh	SARS PLP yeast	NS1 function inh	Lassa entry inh	Cruzain noTriton	Cruzain inh Det	RE007 growth inh	2A StopGo
51	Cc1noc(C)c1COc1ccc(C(=O)OCC(=O)OC(C)(C)C)cc1	?	-4%	/	/	/	/	1%	?
52	Cc1cc(Br)cc2c(C(=O)NCC3CCCO3)cc(-c3ccccc3)nc12 (stereo not given)	20%	1%	-10%	2%	/	/	0%	-4%
53	CCN1CCN(C(c2ccccc2)c2nnnn2CCc2ccc(OC)c(OC)c2)CC1 (stereo not given)	-3%&-3%	13%	0%	?	6%	1.0%	5%	-18%
54	O=C(c1ccco1)N1CCN(S(=O)(=O)c2ccccc2)CC1	4%[46.1 µM]	4%	7%	1%[46.1 µM]	/	/	7%	-3%
55	CN(C(=O)COC(=O)/C=C/c1ccc(C(F)(F)F)cc1)C1CCS(=O)(=O)C1 (stereo not given)	/	0%	4%	/	/	/	6%	?
56	O=C(Nc1ccc(Cl)cc1)NC1CCS(=O)(=O)C1 (stereo not given)	13%	-1%	8%	20%	-16%	-8.7%	0%	15%
57	COC(=O)c1ccc(OC)c(CSc2nnc(COc3ccc(OC)cc3)o2)c1	?	-10%	-23%	?	-5%	-7.7%	1%	?
58	COc1ccc(N2CCN(C(=O)c3ccc(Br)cc3)CC2)c([N+](=O)[O-])c1	-1%[46.1 µM]	-3%	-41%	-27%	/	/	-6%	-29%
59	COc1ccc(NC(=O)CN(C)C(=O)CNC(=O)c2cccs2)cc1	-4%	-5%	-6%	0%	/	/	-19%	-19%
60	COc1ccccc1NC(=S)NC(NC(C)=O)C(Cl)(Cl)Cl (stereo not given)	?	0%	-5%	2%[46.1 µM]	/	/	13%	-16%
61	COc1ccc(COC(=O)CCc2cc(OC)c(OC)c(OC)c2)cc1F	2%[46.1 µM]	/	/	-1%	/	/	-2%	9%
62	Cc1cc(Br)ccc1NC(=O)C1CCN(S(=O)(=O)c2ccc(Br)s2)CC1	0%[46.1 µM]	/	/	9%[46.1 µM]	13%	-1.4%	/	-29%
63	Cc1ccc(S(=O)(=O)NC(CC(C)C)C(=O)N2CC(C)OC(C)C2)cc1 (stereo not given)	?	4%	12%	5%	/	/	-11%	-15%
64	O=C(OCC(=O)N1CCC(Cc2ccccc2)CC1)c1ccccc1NCCO	16%[46.1 µM]	2%	/	-23%	/	/	12%	-27%
65	O=C(COC(=O)c1sc2cc(F)ccc2c1Cl)Nc1ncc(Cl)cc1Cl	?	?	3%	3%	?	2.4%	12%	-6%
